LASV entry inh: blocks Lassa virus binding to or entry into cells; Lassa virus pseudotype entry inhibition, cell reporter; control for the full effect not named in the record; Potency, µM (top dose mostly 37.9 µM), for the others: at the top dose activity change, negative = inhibition, usual class: inhibitors; 1.2% of 300,000 active; active means well fitted inhibition curve with a large enough effect; inconclusive means small, poorly fitted or top-dose-only effect, or effect the other way; inactive means flat fitted curve, though single readings scatter; tested in HEK293 cells; also: % is scaled to controls: 0 for no effect and ±100 for the full control effect; nearly all actives have a fitted effect of over 50% in size; luciferase read-out
StopGo reporter: lowers the luciferase signal of an FMDV 2A StopGo reporter; human cells with a luciferase reporter of 2A StopGo recoding; control for the full effect not named in the record; Potency, µM (titrated, usually from 57.9 µM), for inactives: at the highest dose signal change, negative = less light; 1.2% of 410,000 active; AID 1159524; active = well fitted falling curve with a large enough effect; inconclusive = small, poorly fitted or top-dose-only effect; inactive = no such curve, though single readings can be large or run the other way; tested in HEK293T cells; also: % is scaled to controls: 0 for no effect and ±100 for the full control effect; nearly all actives have a fitted effect of over 45% in size; luciferase light after 4 h
Cruzain inh Det: blocks cruzain activity in presence of Triton detergent. Potency, µM, inactives show max response, negative = inhibition, most hits filed as inhibitors. purified cruzain, Z-FR-AMC fluorescence, 0.01% Triton. P25779. 0.43% of 200,000 active; active = well fitted curve in the direction sought with a large enough effect; inconclusive = small, poorly fitted or top-dose-only effect, or another doubt; inactive = no such curve, though single readings can be large; an effect the other way counts as inactive or inconclusive;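 also: plate controls were neutral wells for no effect and buffer without enzyme for full effect; nearly all actives have a fitted effect of over 40% in size; top concentration of the series not given in the record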
Target sequence (P25779 123-467 limits assumed): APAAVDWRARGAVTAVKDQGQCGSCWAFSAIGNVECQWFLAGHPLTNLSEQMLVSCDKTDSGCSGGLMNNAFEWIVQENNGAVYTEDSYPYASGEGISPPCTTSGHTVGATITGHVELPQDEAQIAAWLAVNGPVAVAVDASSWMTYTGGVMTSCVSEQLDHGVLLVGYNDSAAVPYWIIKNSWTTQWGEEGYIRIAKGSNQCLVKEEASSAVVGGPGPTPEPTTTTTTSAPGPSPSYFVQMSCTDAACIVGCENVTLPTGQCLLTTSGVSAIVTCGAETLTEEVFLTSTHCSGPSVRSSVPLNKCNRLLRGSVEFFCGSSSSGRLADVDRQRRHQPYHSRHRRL
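Enzyme 1.5 nM, Z-FR-AMC 2 uM, NaOAc 100 mM pH 5.5, DTT 5 mM, Triton X-100 0.01%; 15 min RT compound preincubation; kinetic ex360/em450, 60 s delta.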
RE007 growth inh: less growth of the S. pombe RE007 Vpr strain; Potency, µM (series often up to 92.2 µM), without a hit: top-dose activity change, negative = less growth; 0.21% of 360,000 active; S. pombe RE007 Vpr strain, BacTiter-Glo ATP luminescence, 24 h; control for the full effect not named in the record; active = well fitted falling curve with a large enough effect; inconclusive = small, poorly fitted or top-dose-only effect; inactive = no such curve, though single readings can be large or run the other way;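 also: % is scaled to controls: 0 for no effect and ±100 for the full control effect; nearly all actives have a fitted effect of over 50% in size; the assay follows cell death caused by Vpr and the record does not say whether a fall means rescue or toxicity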
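Fission yeast RE007 carrying one integrated HIV-1 vpr copy, seeded at OD 0.01 in PMG+AL medium with 23 nL pinned compound. Grown 24 h at 30 degrees; viability read by BacTiter-Glo luminescence after 5 min.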
SARS PLpro yeast: blocks SARS-CoV papain-like protease in a yeast assay; Potency, µM (doses to about 32.9 µM), inactives show top-dose activity, positive = growth rescue; AID 485353; S. cerevisiae expressing SARS-CoV PLpro, growth rescue; control for the full effect not named in the record; 0.19% of 330,000 active; also: 0% is about no effect; nearly all actives have a fitted effect of over 55% in size; growth read by luminescence after 48 h
NS1 function inh: blocks influenza NS1 protein function; S. cerevisiae slowed by influenza A NS1, growth recovery by OD600; Potency, µM (highest dose often 46.1 µM), for inactives: at the highest dose activity, positive = more growth; 0.4% of 270,000 active; also: actives are rising curves; nearly all actives have a fitted effect of over 50% in size
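Growth recovery, yeast-based: influenza A NS1 expressed in S. cerevisiae causes slow growth, and suppressors are detected by OD600. The parent strain without NS1 is used as positive control.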
Cruzain inh noDet: cruzain (T. cruzi) inhibition without detergent. Potency, µM, for inactives: max response, negative = inhibition, hits mostly inhibitors. AID 1476. P25779. 2.3% of 200,000 active. purified cruzain, Z-FR-AMC fluorescence, no detergent; active = well fitted curve in the direction sought with a large enough effect; inconclusive = small, poorly fitted or top-dose-only effect, or another doubt; inactive = no such curve, though single readings can be large; an effect the other way counts as inactive or inconclusive;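 also: plate controls were enzyme without inhibitor for no effect and buffer without enzyme for full effect; nearly all actives have a fitted effect of over 40% in size; top concentration of the series not given in the record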
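Detergent-free condition (0.00005% Triton X-100) in acetate buffer pH 5.5 with DTT. 1.5 nM enzyme and compound were pre-mixed 15 min, then 2 uM Z-FR-AMC substrate added; reaction progress from fluorescence change between first and third reads (60 s).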
Marburg entry inh: inhibitors of Marburg virus binding or cell entry. 1.8% of 300,000 active. AID 540276. Potency, µM (series often up to 37.8 µM), for inactives: top-dose activity change, negative = inhibition, most hits filed as inhibitors. Marburg virus pseudotyped entry inhibition, cell reporter; control for the full effect not named in the record; about a third of the inactives were read at about 46 µM; active = well fitted inhibition curve with a large enough effect; inconclusive = small, poorly fitted or top-dose-only effect, or effect the other way; inactive = flat fitted curve, though single readings scatter; tested in HEK293 cells; about a fifth of its hits are not listed in these tables; also: % is scaled to controls: 0 for no effect and ±100 for the full control effect; luciferase read-out
* hit, by the source's call; ? = inconclusive; / = not tested or not shown; & = joins results of further samples; [ ] = dose if it differs, or a comment. Unless noted, calls follow the shape of the dose curve; as a rule, active means well fitted rising curve with a large enough effect; inconclusive means small, poorly fitted or top-dose-only effect; inactive means no such curve, though single readings can be large or run the other way. Potency is read from the fitted curve at half-maximal effect.

SMILES | LASV entry inh | StopGo reporter | Cruzain inh Det | RE007 growth inh | SARS PLpro yeast | NS1 function inh | Cruzain inh noDet | Marburg entry inh
COCCN1C=C2C(=O)C(C)(OC(=O)CCc3ccccc3)C(=O)C=C2C=C1c1ccc(C#N)cc1 (stereo not drawn) | / | -3% | / | -2% | 1% | -6% | / | 1%
CCOc1cc(Cl)c(S(=O)(=O)n2cc(C)nc2CC)cc1Cl | ? | ? | -7.7% | / | / | / | 21% | -19%[46.1 µM]
COc1cc2nc(NCc3ccccc3)n3nc(-c4ccccc4)nc3c2cc1OC | / | -16% | 0.7% | / | / | / | 5% | 3%[46.1 µM]
COC(=O)c1cc(C(=O)c2ccccc2)n2c(=O)/c(=C\N(C)C)sc12 | / | -17% | / | 13% | 0% | 0% | / | /
COC(=O)c1ccc2c(c1)N(Cc1ccccc1)C(=O)c1ccccc1S2(=O)=O | 9%[46.1 µM] | -26% | 0.1% | / | / | / | -8% | /
C[C@H](NC(=O)OCc1ccccc1)C(=O)NNC(=O)[C@H](Cc1ccccc1)NC(=O)OC(C)(C)C | / | -5% | / | 12% | 1% | 2% | / | /
CCOC(=O)N1CCN(Cc2nc3cc(NC(=O)CC(C)C)ccc3n2C)CC1 | / | -9% | / | 6% | 1% | 1% | / | /
O=C(CSc1nc(O)cc(=O)n1-c1ccccc1)NC1CCCCC1 | -19% | -21% | -4.3% | 7% | 7% | ? | -7% | 9%
Cc1[nH]nc(SCC(=O)NCc2ccccc2)c1[N+](=O)[O-] | 5% | 7% | 1.5% | 2% | 5% | 2% | 5% | 12%
O=C(CCC1N=C2c3ccccc3N=C(SCc3cccc(Cl)c3)N2C1=O)NCCc1ccccc1 (stereo not drawn) | 2%[46.1 µM] | 1% | -5.4% | / | / | / | 23% | ?
Cc1ccc(C)c(S(=O)(=O)NCc2ccc(C(=O)N3CC(C)OC(C)C3)cc2)c1 (stereo not drawn) | -6% | -14% | -0.1% | 17% | -17% | -9% | 19% | -9%[46.1 µM]
COc1ccc(/C(O)=C2/C(=O)C(=O)N(CCN3CCOCC3)C2c2ccc(C)cc2)cc1 (stereo not drawn) | 6% | / | -3.8% | -11% | -5% | 0% | -7% | 4%
CCOc1cc(C)nc(NCCc2ccc(OC)c(OC)c2)n1 | -19% | / | -2.7% | -1% | -1% | -11% | -1% | ?
CC(O)C(NS(=O)(=O)c1ccc2ccccc2c1)C(=O)OCC(=O)Nc1ccccc1OC(F)F (stereo not drawn) | 3% | -3% | / | -5% | / | / | / | 2%
Cn1c(NCCO)nc2c1c(=O)n(Cc1cccc(F)c1)c(=O)n2C | ? | -11% | -2.5% | / | / | / | -9% | 3%[46.1 µM]
S=C(NCc1ccco1)NCC1CCCO1 (stereo not drawn) | 6%[46.1 µM] | 10% | / | -6% | 0% | 6% | / | 0%[46.1 µM]
COc1ccc(CC(=O)n2nc(-c3cccnc3)nc2N)cc1 | 7% | 18% | 0.6% | -1% | 5% | -24% | -2% | 8%
O=C(Nc1cccnc1)c1cnn2c(C(F)F)cc(C3CC3)nc12 | 0% | 0% | 0.8% | -6% | / | -41% | -17% | 13%
COc1cc(NC(=O)C2=C(N3CCOCC3)/C(=C\c3ccc(N(C)C)cc3)CCC2)cc(OC)c1OC | ? | ? | -11% | -7% | 5% | 18% | ? | ?
Cc1ccsc1/C=N/Nc1cccc(C(=O)O)c1 | / | 4.5µM* | / | 0% | 0% | / | / | /
CCOc1ccccc1CNCCNC(=O)c1nonc1N | -9% | -21%&-17% | -2.0% | 1% | 0% | -3% | 8% | ?
COCCn1c(=O)c2cc3c(=O)n(CCOC)c(=O)c3cc2c1=O | -20% | -22% | 6.3% | 3% | 21% | 7% | -8% | 11%
Cc1ccccc1NC(=O)c1cc(=O)c2ccccc2o1 | -7% | 10% | -0.8% | 9% | 1% | -4% | -2% | 18%
O=C(NCCn1cc(SCc2ccccc2)c2ccccc21)c1c(F)cccc1F | 1% | ? | -3.8% | -5% | -14% | -16% | -3% | -27%
O=C1c2ccccc2C(=O)N1Cc1cnc(N2CCN(c3ccccc3)CC2)s1 | -13%[46.1 µM] | ? | / | 4% | 1% | -2% | / | ?
COc1ccc(-c2noc(CSc3nc4ccccc4[nH]3)n2)cc1OC | -17%[46.1 µM] | ? | -14% | / | / | / | -11% | -35%[46.1 µM]
CC(C)=CCC12CN3CCN(CC(C3)C1=O)C2 | -13% | -18% | 0.2% | -9% | 5% | -4% | -2% | 16%
Cc1onc(-c2ccccc2Cl)c1C(=O)N1CCN(Cc2ccc3c(c2)OCO3)CC1 | -5%[46.1 µM] | -10% | / | -14% | 0% | -2% | / | -12%[46.1 µM]
CCC(C)c1ccc(OCC(=O)Nc2cccc3ccc(C)nc23)cc1 (stereo not drawn) | ? | -9% | -3.0% | / | / | / | -5% | 5%[46.1 µM]
Cc1ccc(CNC(=O)C2CCCN(S(=O)(=O)c3c(C)noc3/C=C/N(C)C)C2)cc1 (stereo not drawn) | / | -8% | / | 12% | 4% | 22% | / | /
CCOC(=O)C1=C(c2ccc(OC)cc2)OC(N)=C(C#N)C1c1cccnc1 (stereo not drawn) | 0%[46.1 µM] | -19% | / | 2% | 0% | -1% | / | -13%[46.1 µM]
CC(C)C(=O)NNc1ccc(C(F)(F)F)cn1 | 10%[46.1 µM] | -25% | / | 32% | 0% | 0% | / | 3%[46.1 µM]
Cc1c(NC(=O)/C=C/c2cn(-c3ccccc3)nc2-c2ccccc2)c(=O)n(-c2ccccc2)n1C | 1% | -8% | 0.8% | -6% | 3% | ? | ? | -13%
CN(C)CC(C)(C)CNC(=O)C1CCN(Cc2ccccc2O)CC1 | ? | -8% | 1.5% | 2% | 2% | -14% | -1% | ?
Cc1nnc(SCC(=O)N2CCCCC2)n1CC1CCCO1 (stereo not drawn) | -1% | 0% | 2.2% | -5% | 15% | 0% | 7% | -18%[46.1 µM]
COc1cc2c(cc1OC)[C@@H]1C(=O)c3ccc4c(c3O[C@@H]1CO2)C[C@H](C(C)C)O4 | ? | ? | / | 5% | -3% | 3% | / | 7.1µM*
Cc1ccccc1-c1nc(CN2CCCC(C(=O)NCCCN3CCOCC3)C2)c(C)o1 (stereo not drawn) | -14% | -25% | -1.5% | -7% | -5% | -5% | -5% | ?
CC(C)N(C(=O)[C@H]1C[C@H](CC(=O)NC(C)(C)C)C(=O)N2CCc3c([nH]c4cc(CCC(=O)N(C)C)ccc34)[C@]12C)C(C)C | / | -8% | / | 10% | 6% | / | / | 2%
Cc1cc(C)cc(-n2c(C)cc(C(=O)C(=O)Nc3nnc(C)s3)c2C)c1 | 18%[46.1 µM] | -12% | -4.1% | / | / | / | ? | -31%[46.1 µM]
O=C(Cn1ncn2c(cc3ccccc32)c1=O)NCCCc1ccccc1 | 9%[46.1 µM] | -5% | / | -12% | 2% | 30% | / | 26%[46.1 µM]
NC(=O)CCC(NS(=O)(=O)c1ccc(Cl)cc1)C(=O)NCc1ccccc1 (stereo not drawn) | / | / | -2.4% | / | -10% | 3% | 12% | /
CCOCc1[nH]c(=S)[nH]c(=O)c1Cc1ccc(OCC(C)C)cc1 | 1% | 0% | / | 5% | 0% | -2% | / | -7%[46.1 µM]
O/N=C(\c1ccccc1)C(O)c1ccccc1 (stereo not drawn) | 3% | -2% | / | 1% | 3% | 3% | / | 4%
O=C(c1cccc(Cl)c1)N1CCN(C(=O)c2ccco2)CC1 | 0% | -7% | -0.5% | 22% | 13% | -3% | -7% | -3%[46.1 µM]
O=C(CNc1cccc([N+](=O)[O-])c1)N/N=C/c1ccc([N+](=O)[O-])o1 | ? | 11% | / | -11% | -1% | 5% | / | ?
Cc1ccc(/C=C/C(=O)N2CCN(Cc3ccccc3)CC2)o1 | -13% | 3% | -5.2% | -26% | -10% | 11% | -4% | 1%
O=C(COC(=O)c1ccccn1)c1ccc([N+](=O)[O-])cc1 | / | 4% | / | 4% | -2% | 4% | / | /
Cc1cc(Cl)c2oc(C(=O)N(C)Cc3cc(C)[nH]n3)c(C)c2c1 | -3% | -17% | / | 2% | -2% | -40% | / | ?
CC1CN(C(=O)CSc2nnc(CNC(=O)c3ccc(S(=O)(=O)N(C)C)cc3)o2)CC(C)O1 (stereo not drawn) | 1% | -28% | / | ? | 0% | -3% | / | 2%
Cc1nc2sc3c(c2c(=O)[nH]1)CCCCC3 | -6% | 23% | / | -18% | 0% | -48% | / | 20%[46.1 µM]

The results go on.
SMILES | LASV entry inh | StopGo reporter | Cruzain inh Det | RE007 growth inh | SARS PLpro yeast | NS1 function inh | Cruzain inh noDet | Marburg entry inh
COc1ccc(C)cc1S(=O)(=O)N1c2ccccc2CC1C (stereo not drawn) | 17% | 0% | -6.5% | 4% | -39% | -69% | -5% | ?
COC(=O)CSc1nc(N)c(C#N)c(C(C)C)c1C#N | -11% | 0% | -1.2% | -23% | -2% | -37% | -8% | ?
Cc1cc(C)cc(-n2ccn(Cc3ccc(F)cc3)c(=O)c2=O)c1 | 0%[46.1 µM] | -6% | -2.3% | / | / | / | -3% | /
COc1cccc(/C=C(\C#N)c2nc3ccc(C)cc3[nH]2)c1OCC(=O)O | / | -1% | / | 6% | 4% | ? | / | /
Cc1c(C(=O)O)sc(S(=O)(=O)N2CCN(C(=O)Cc3ccccc3)CC2)c1C(=O)O | ? | -1% | / | 3% | 0% | / | / | 2%[46.1 µM]
CC1(C)Cc2ccccc2-c2nnc(SCC(=O)Nc3nc4ccccc4s3)n21 | 1% | ? | -2.6% | -10% | 4% | -24% | 5% | -27%
COc1ccc(CCNC(=O)CSc2nnc(-c3ccc(F)cc3)o2)cc1OC | 3% | ? | 1.3% | -1% | 1% | -3% | 2% | -10%
Cc1ccc(NC(=O)c2cnn(-c3ccccc3)c2C)c(C)c1 | ? | 25% | / | 7% | -12% | -53% | / | 17%
CCOC(=O)c1cc(NC(=O)Cc2ccc(S(=O)(=O)N3CCOCC3)s2)cc(C(=O)OCC)c1 | ? | 6% | / | -12% | -10% | / | / | ?

Compound activity (PubChem BioAssay)
